Assay outcomes from PubChem BioAssay.
ClpP mod = qHTS Assay for Activators of ClpP. ATP-dependent Clp protease proteolytic subunit (Bacillus subtilis (strain 168)), P80244. purified B. subtilis ClpP, FRET peptide cleavage, 20 min. Potency, µM (top dose mostly 57.5 µM), without a hit: at the top dose activity change, negative = active. 1.9% of 340,000 active; active = well fitted falling curve with a large enough effect; inconclusive = small, poorly fitted or top-dose-only effect; inactive = no such curve, though single readings can be large or run the other way; note: potency is the fitted concentration of half-maximal effect; the source files actives as falling curves though it sought activators and does not explain the sign; nearly all actives have a fitted effect of over 65% in size; many hits overshoot -100%
Target sequence (P80244 whole entry, looked up): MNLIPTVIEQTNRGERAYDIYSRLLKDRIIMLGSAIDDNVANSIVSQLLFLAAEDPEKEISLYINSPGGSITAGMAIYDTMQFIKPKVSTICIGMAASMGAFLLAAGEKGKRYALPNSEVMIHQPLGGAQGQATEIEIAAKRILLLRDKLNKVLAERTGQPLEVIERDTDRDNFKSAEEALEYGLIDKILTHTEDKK
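Purified B. subtilis ClpP, 10 microg/mL final in Tris/HCl pH8 with KCl, BSA, glycerol and Tween-20, cleaved an Abz/nitrotyrosine-quenched decapeptide. Fluorescence (ex 320, em 430) was read at 0 and 20 min at room temperature. Delta was normalized to 5.8 microM ADEP and DMSO/no-enzyme controls.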
TRPML1 blocker = human mucolipin-1 channel inhibition | Q9GZU1 | TRPML1-inducible cells, Ca2+ dye fluorescence, FDSS; active compounds read low; inhibition of EC80 agonist-evoked calcium signal | 0.02% of 390,000 active | AID 624415 | activity change, negative = inhibition, % (test concentration not listed); in the data active means activity change below about -50%; inconclusive means about -30% to -50%; inactive means above about -30%;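 note: stimulus is agonist 54-4 at its EC80 concentration; % is set by controls: 0 for no effect and ±100 for the full control effect; compound concentration not given in the record; the text of the record puts the active cut at -80%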
Target sequence (Q9GZU1 whole entry, looked up): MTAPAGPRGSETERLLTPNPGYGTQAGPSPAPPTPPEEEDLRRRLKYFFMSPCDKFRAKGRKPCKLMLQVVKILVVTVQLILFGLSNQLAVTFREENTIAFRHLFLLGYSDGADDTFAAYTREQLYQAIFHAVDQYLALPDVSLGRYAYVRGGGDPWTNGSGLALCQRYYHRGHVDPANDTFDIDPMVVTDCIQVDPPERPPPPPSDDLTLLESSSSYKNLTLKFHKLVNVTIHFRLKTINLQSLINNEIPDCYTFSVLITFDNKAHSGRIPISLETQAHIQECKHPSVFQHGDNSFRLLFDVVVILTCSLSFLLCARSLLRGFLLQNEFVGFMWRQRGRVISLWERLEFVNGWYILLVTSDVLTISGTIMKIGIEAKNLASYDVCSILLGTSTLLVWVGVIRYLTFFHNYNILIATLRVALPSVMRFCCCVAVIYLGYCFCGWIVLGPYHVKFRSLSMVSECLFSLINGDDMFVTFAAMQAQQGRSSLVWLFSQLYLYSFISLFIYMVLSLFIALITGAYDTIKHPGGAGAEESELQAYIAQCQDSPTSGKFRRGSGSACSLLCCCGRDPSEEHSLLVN
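TRPML1-DL cells, Tet-induced overnight (~16 h, 37 °C) at 1,500 cells/well, were loaded with Ca8 no-wash dye plus quencher for 45-90 min at room temperature. Compounds were pinned during FDSS kinetic reading; agonist 54-4 at EC80 (4 uM final) then added.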
Menin-MLL FL inh = menin-MLL binding inhibition, fluorescein peptide; AID 1766; 290,000 tested, under 10 active; FP activity change, % at 61.4 µM; Fluorescence polarization, fluorescein-MLL peptide displacement from menin; inconclusive = falling polarisation curve, or a change in total fluorescence; inactive = total fluorescence flat and polarisation flat or rising; no compound was filed as active; the % refers to the polarisation; negative = inhibition;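 note: % of control where 0% means no effect; inhibitors lower the polarisation; unlabelled MLL peptide was the positive control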
gsp agonist = agonists of gsp mutant (McCune-Albright syndrome); gsp mutant cells, cAMP HTRF, 30 min; control for the full effect not named in the record; Potency, µM (titrated, usually from 76.9 µM), for the others: top-dose activation (cAMP increase), most hits filed as activators; 0.13% of 340,000 active; active = well fitted activation curve with a large enough effect; inconclusive = small, poorly fitted or top-dose-only effect, or another doubt; inactive = no such curve, though single readings can be large or run the other way; cell line not stated here;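 note: phosphodiesterase inhibitor Ro 20-1724 added with compounds to block cAMP breakdown; potency is the fitted concentration of half-maximal effect; nearly all actives have a fitted effect of over 60% in size; about a fifth of the inactives were tested at one dose only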
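Cells stably selected in G418 were plated at 2000/well, grown 16-24 hr, then given compounds in DMSO with the PDE inhibitor […] (300 uM solution added) for 30 min at 37C; cAMP was read by HTRF.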
gsp antagonist = gsp mutant antagonism; gsp-mutant cells, cAMP HTRF, 30 min; control for the full effect not named in the record; Potency, µM (titrated, usually from 76.9 µM), inactives show at the highest dose activity change, negative = inhibition, actives largely listed as inhibitors; 0.4% of 340,000 active; active = falling curve of any shape with a large fitted effect; inconclusive = falling curve, mostly with a smaller effect; inactive = flat or rising curve; cell line not stated here;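 note: intracellular cAMP measured with PDE inhibitor Ro 20-1724 present during compound exposure; potency is the fitted concentration of half-maximal effect; % is set by controls: 0 for no effect and ±100 for the full control effect; nearly all actives have a fitted effect of over 65% in size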
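HTRF cAMP measurement after 30 min RT detection following 30 min, 37C compound treatment alongside […] (added as 300 uM solution) in G418-selected cells seeded at 2000/well and grown 16–24 h.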
TRPML1 ag = activates the human TRPML1 channel | TRPML1-expressing cells, Ca2+ dye fluorescence, FDSS; host cell line not named in the record; reference of the full effect not given here | AID 624414 | 0.12% of 410,000 active | Q9GZU1 | activation, % (no concentration beside the values); in the data active = activation above about 50%; inconclusive = about 30% to 50%; inactive = below about 30%; note: 0% is about no effect; the text of the record puts the active cut at 80%
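Agonist activity was taken from a 110 s kinetic Ca2+ dye read on the FDSS after pinning compounds onto TRPML1-DL cells. The cells were seeded at 1,500/well with Tet inducer, incubated about 16 h, then dye-loaded at room temperature.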
* = called active by the depositor; ? = inconclusive; . = not tested or not shown; & = joins results of further samples; [ ] = dose if it differs, or a comment.

Values run as follows: ClpP mod	TRPML1 blocker	Menin-MLL FL inh	gsp agonist	gsp antagonist	TRPML1 ag
O=C(c1ccc(Br)cc1)N1CCN(c2ccccn2)CC1
  -24%	6	.	-35%[inhibitor]	.	-0.6
Cc1ccnc(NC(=O)C(C)n2cc([N+](=O)[O-])cn2)c1 (centres undefined)
  -5.8%	-13	-2.0	6%[15.4 µM]	-9%	0.6
Cc1onc(-c2ccccc2Cl)c1C(=O)NCc1ccccc1
  0.5%	-4	1.0	-50%[inhibitor]	8%	-0.4
O=C(Nc1nc(-c2ccc(Oc3ccccc3)cc2)cs1)C1=COCCO1
  ?	-7	-0.8	4%	-14%	-0.6
CCN(C(=O)Cn1nc(Cc2ccncc2)c2ccccc2c1=O)c1cccc(C(F)(F)F)c1
  -0.6%	9	.	.	.	-0.2
Cc1ccc(NC(=S)NC(NC(=O)N(C)C)C(Cl)(Cl)Cl)cc1 (centres undefined)
  -1.4%	-17	.	-6%	4%	0.5
O=C(COC(=O)c1ccc(F)cc1Cl)NCc1ccco1
  .	-4	.	-15%[15.4 µM]	8%	0.1
COC(=O)c1scc(-c2ccc(C)cc2)c1S(=O)(=O)Nc1cc(OC)c(OC)c(OC)c1
  0.5%	19	.	.	.	0.5
COc1ccc(F)cc1S(=O)(=O)n1cc(C)nc1-c1ccccc1
  -12%	-2	0.0	1%	-14%	0.4
O=C1NC[C@H](Cc2ccccc2)N(CC2CCN(CCc3ccc(-c4ccccc4)cc3)CC2)C1=O
  -0.1%	3	.	.	12%	-1.0
CN(C)C(=O)c1nc(C#N)c(N(C)C)o1
  -5.5%	-1	-1.5	-26%	3%	0.6
CC(=O)n1cc([C@@H]2C=C(C(=O)NCc3ccccc3)O[C@H](OCCCCO)C2)c2ccccc21
  -9.0%	-1	-6.8	.	-14%	0.1
COc1ccc(CN(C)C(=O)c2cccc(NS(=O)(=O)c3ccccc3)c2)cc1F
  -2.2%	15	-1.7	-3%[15.4 µM]	-13%	1.5
CCOc1ccc(NC(=O)c2cccc(S(=O)(=O)Nc3c(C)n(C)n(-c4ccccc4)c3=O)c2)cc1
  0.2%	0	.	-21%	-2%	4.0
COc1ccc(C2=NOC3(CC(=O)N(c4ccc(C)cc4)C3=O)C2)cc1 (centres undefined)
  0.3%	-7	8.2	-1%	1%	0.9

Other results
Values run as follows: ClpP mod	TRPML1 blocker	Menin-MLL FL inh	gsp agonist	gsp antagonist	TRPML1 ag
CCCCNC(=O)c1onc(CSc2ccccc2CC)c1C(=O)O
  -0.2%	20	0.3	.	-23%	0.0
CCOC(=O)/C(C#N)=C1/C=C(C)c2ccccc2N1
  -8.4%	-24	2.8	-39%[inhibitor]	-2%	0.4
O=C(NCc1ccc2[nH]c3c(c2c1)CCCC3)c1ccc(S(=O)(=O)N2CCOCC2)cc1
  -2.7%	-10	8.7	-5%	-6%	-0.2
Cc1ccc(NC(=O)CCSCCc2ccccn2)cc1
  -5.3%	30&-11	-2.0	-2%	0%	-0.9&0.2
O=C(NNC(=S)NC(=O)c1ccccc1)c1ccc(O)cc1
  -20%	1	-8.2	16%	-3%	0.7
CC1CCN(C(=O)CN2C(=O)COc3ccc(Cl)cc32)CC1
  -4.8%	-21	-1.3	-1%	1%	1.0
CCCCn1c(=O)cc(O)c2ccccc21
  -20%	-4	3.1	-24%	-7%	-0.6
Cc1ccnc(NC(c2ccccn2)c2c(C)[nH]c3ccccc23)c1 (centres undefined)
  .	20	5.5	6%[15.4 µM]	8%	1.2
CCOc1ccccc1C(=O)Nc1cccc(-c2nc3ccccc3s2)c1
  3.6%	-1	.	.	.	0.7
COc1cccc(OC)c1Oc1ccc(C(F)(F)F)cn1
  -1.1%	23	3.5	-27%	0%	1.0
COCCOC(=O)Cn1nnc2sc(-c3ccccc3)cc2c1=O
  4.0%	18	.	.	.	2.0
CCn1c(C)nc2cc(C(=O)OC)ccc21
  .	-7	-0.6	0%[15.4 µM]	.	1.2
CCOC(=O)c1c(C)[nH]c(C(=O)C(C)Sc2ccc(Cl)cc2)c1C (centres undefined)
  -0.1%	44	-0.6	8%	-27%	1.1
COc1ccccc1/C=C/c1nc(C#N)c(N(C)C)o1
  4.9%&4.6%	47&-2	0.5	16%	-16%	-0.9&0.0
Cc1cccc(N2CCN(c3ncnc4onc(-c5ccc(F)cc5)c34)CC2C)c1 (centres undefined)
  ?	-19	.	.	.	10

The results go on.
Values run as follows: ClpP mod	TRPML1 blocker	Menin-MLL FL inh	gsp agonist	gsp antagonist	TRPML1 ag
COc1ccccc1N(CCOc1ccccc1)S(=O)(=O)c1ccccc1
  .	7	.	-4%	-6%	1.1
CCOc1ccc(NC(=O)CN2C(=O)COc3ccc(S(=O)(=O)N4CCCCC4)cc32)cc1
  -0.2%	3	-1.5	13%	-19%	1.4
CCN(CC)S(=O)(=O)c1ccc(OC)c(NC(=O)c2cc(C)on2)c1
  .	0	-0.1	24%[15.4 µM]	0%	-0.2
CCOC(=O)C1=C(C)C(c2ccccc2)NC(=S)N1 (centres undefined)
  -0.7%	9	-2.0	-38%[inhibitor]	-7%	-0.2
O=C(COc1cc(Cl)c(Cl)cc1Cl)NCCc1ccccn1
  .	-15	3.3	6%[15.4 µM]	4%	0.0
O=C(Nc1ccc(S(=O)(=O)Nc2ncccn2)cc1)c1cccc(Cl)c1
  -2.0%	-8	.	.	.	2.8
C[C@H]1COC(=O)[C@@H](NC(=O)OCC2c3ccccc3-c3ccccc32)C/C=C\C[C@H](CC(=O)NCCO)C(=O)N1
  -7.4%	-9	.	-9%	9%	-0.7
CCCNS(=O)(=O)c1cccn1-c1ncc(C(F)(F)F)cc1Cl
  -0.5%	20	0.8	15%	-7%	1.8
COc1cc(N)ccc1-c1cc2ccccc2oc1=O
  1.2%	.	1.8	15%	1%	.
CC(NC(=O)CN(C)Cc1cccc(F)c1)c1ccccc1 (centres undefined)
  -1.2%	.	-1.3	?	-2%	.
Cc1ccc(NC(=O)NC(=O)N(C(C)C)S(=O)(=O)c2ccc(C)cc2)cc1
  -2.4%	.	-6.1	-24%	8%	.
Clc1ccc(Cn2ncc3c(NCc4cccnc4)ncnc32)cc1
  1.0%	-18	-2.0	2%	2%	-0.9
COc1ccc(NC(=O)c2cc(S(=O)(=O)N3CCCCC3)cn2C)cc1Cl
  -0.3%	13	.	.	.	0.8
Cc1ccc(-c2nn(-c3ccccc3)c3c2cnc2ccccc23)cc1C
  -11%	5	.	.	.	2.9
Cc1c(NS(C)(=O)=O)c(=O)n(-c2ccccc2)n1C
  3.4%	-16	-0.5	9%	11%	-0.5

Further structures follow.
Values run as follows: ClpP mod	TRPML1 blocker	Menin-MLL FL inh	gsp agonist	gsp antagonist	TRPML1 ag
CCNC(=O)C1(C)CCCN(C(=O)c2sc(-c3ccccc3)nc2C)C1 (centres undefined)
  -1.5%	90	.	.	.	2.4
NCCCCc1cn(CC(=O)N2CCNCC2)nn1
  -1.0%	-8	2.1	-28%	10%	3.6
COc1ccccc1NC1=C(Cl)C(=O)OC1OC(=O)c1ccco1 (centres undefined)
  .	12	-0.2	-5%[15.4 µM]	1%	0.0
COc1cc2c(cc1OC)C(C)N(C(=O)Cc1ccc(C(F)(F)F)cc1)CC2 (centres undefined)
  -1.8%	3	2.5	-11%	-14%	0.8
Cc1ccccc1-n1c(-c2csc3ccccc23)n[nH]c1=S
  -15%	12	3.6	-13%	-17%	1.7
Cc1nn(Cc2ccccc2)c(Cl)c1C(=O)OC1CCOC1=O (centres undefined)
  1.0%	1	5.2	-16%	13%	-0.7
CC1CCCC(C)N1/N=C/c1ccc(C(=O)O)cc1 (centres undefined)
  .	-20	3.6	7%[15.4 µM]	1%	-0.1
COC(=O)CCCC1=CC2=C(c3ccccc3)C(=O)C(C)(OC(=O)C3CCCC3)C(=O)C2=CN1Cc1ccc(OC)cc1 (centres undefined)
  -0.7%	1	-12[11.7 µM]	13%	12%	1.3
CCc1nnc2c3ccccc3nc(Nc3ccc(F)c(Cl)c3)n12
  -0.2%	13	.	.	.	-1.0
CCc1ccc(C2c3c(-c4cc(C)ccc4O)n[nH]c3C(=O)N2Cc2cccnc2)cc1 (centres undefined)
  0.5%	-1	.	.	.	1.7
CC(C)C(c1nnnn1CCc1ccccc1)N1CCC(C(N)=O)CC1 (centres undefined)
  .	4	1.2	7%[15.4 µM]	7%	1.3
N#Cc1c(Nc2ccccc2C(F)(F)F)s[nH]c1=O
  .	20	2.1	-3%[15.4 µM]	7%	2.1
Cc1c[n+]([O-])ccc1[N+](=O)[O-]
  .	-6	.	-24%	-4%	-0.4
CCNS(=O)(=O)c1ccc(NC(=O)Nc2cccc(C(F)(F)F)c2)cc1
  0.3%	24	-0.4	-22%	-2%	-0.1
FC(F)(F)c1cccc(NC(=S)Nc2ccc(Cl)c(Cl)c2)c1
  .	-23	3.5	28%	-29%	-0.8

The listing continues:
Values run as follows: ClpP mod	TRPML1 blocker	Menin-MLL FL inh	gsp agonist	gsp antagonist	TRPML1 ag
CCOC(=O)N1CCN(C(=O)CNC(=O)c2nn(-c3ccc(OC)cc3)c(=O)c3ccccc23)CC1
  -1.1%	13	-0.8	20%	-6%	2.2
CCc1ccc(NC(=O)C(C)Nc2ccc(S(=O)(=O)NC(C)=O)cc2)cc1 (centres undefined)
  -0.1%	-2	2.3	-18%	-3%	-0.9
CC(C)(C)c1ccc(N2C(=O)CC(C/C=C/c3ccccc3)C2=O)cc1 (centres undefined)
  3.3%	-10	0.8	-16%	4%	1.1
CCC(C)(C)C1CCc2c(sc(NC(=O)c3ccccc3C(=O)O)c2C#N)C1 (centres undefined)
  .	2	3.1	4%	?	-0.3
Cn1cccc1Cc1nnc(SCC(=O)NCC2CCCO2)n1CCc1ccccc1 (centres undefined)
  3.1%	18	2.4	-79%	8%	0.5
Cc1c(CC(=O)O)c(=O)oc2c(C)c(OCc3ccccc3Br)ccc12
  3.8%	14	9.2	1%	?	-0.2
FC(F)(F)c1ccc(Cl)c(NC(=S)N/N=C/c2ccccc2Cl)c1
  0.8%	32	-4.2	23%	5%	0.9
Cc1cccc(OCc2nnc(N)s2)c1
  -0.7%	-2	4.1	5%	9%	2.4
COc1ccc(S(=O)(=O)N2CCCCCC2)cc1NC(=O)CCNC(=O)c1ccc(Cl)cc1
  -0.5%	-2	.	-22%	.	-0.5
Oc1ccc(C[C@H]2CN([C@@H](Cc3ccc(O)cc3)CN3CCC[C@@H]3CN3C(=S)NC[C@@H]3Cc3ccccc3)C(=S)N2CCc2ccccc2)cc1
  -4.0%	-17	.	.	.	1.6
COc1cc(C2CC(=O)OC3=C2C(=O)CC(C)(C)C3)cc(OC)c1OC (centres undefined)
  0.4%	6	1.4	-1%[15.4 µM]	8%	-0.8
O=C1CCCN1CN(C(=O)c1ccc2c(c1)OCO2)c1cccc(Cl)c1
  -0.3%	33	4.2	-10%	7%	-0.5
